Screening results (PubChem)
UCH37 inh: human UCH37 deubiquitinating enzyme inhibition | Q9Y5K5 | purified proteasome/UCH37, Ub-AMC cleavage fluorescence | inhibition, % (test concentration not listed) | 330,000 compounds, 0.33% hits | AID 588478;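 active means mean of two replicates above 20%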;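 further: 0% = compound-free wells with enzyme and 100% = wells lacking proteasome; stock transfer was 100 nL into about 20 µL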
Target sequence (Q9Y5K5 whole entry, looked up): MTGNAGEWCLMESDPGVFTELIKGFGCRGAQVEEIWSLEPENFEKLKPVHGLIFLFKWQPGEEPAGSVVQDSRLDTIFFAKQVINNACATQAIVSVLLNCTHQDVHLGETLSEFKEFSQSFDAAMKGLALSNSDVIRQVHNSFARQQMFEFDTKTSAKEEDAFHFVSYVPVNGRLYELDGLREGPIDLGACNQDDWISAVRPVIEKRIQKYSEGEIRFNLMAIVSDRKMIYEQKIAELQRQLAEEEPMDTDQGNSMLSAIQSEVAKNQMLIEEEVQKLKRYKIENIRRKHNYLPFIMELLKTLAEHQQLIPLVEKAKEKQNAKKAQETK
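Material: Human UCH37 enzyme supplied as purified proteasome complex | Schedule: 30 min compound-proteasome preincubation then 25 min substrate reaction, room temperature | Detection: AMC fluorescence from Ub-AMC cleavage, excitation 355 nm, emission 460 nm | Benchmarks: Wells without proteasome as full block, compound-free enzyme plus substrate as uninhibited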
AF4-AF9 inh: blocks AF4 peptide binding to human AF9; AlphaScreen, biotin-AF4 peptide binding to FLAG-AF9; AID 651704; inhibition, % at 10 µM; P42568; 350,000 compounds, 0.47% hits;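 active means every replicate reaching a set inhibition limit, whatever the replicate mean, cut at about 25% in these data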;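 further: 0% = plate neutral control median and 100% = total signal loss; the record names both 10 and 1 µM as test concentration; the first replicate is given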
Target sequence (P42568 whole entry, looked up): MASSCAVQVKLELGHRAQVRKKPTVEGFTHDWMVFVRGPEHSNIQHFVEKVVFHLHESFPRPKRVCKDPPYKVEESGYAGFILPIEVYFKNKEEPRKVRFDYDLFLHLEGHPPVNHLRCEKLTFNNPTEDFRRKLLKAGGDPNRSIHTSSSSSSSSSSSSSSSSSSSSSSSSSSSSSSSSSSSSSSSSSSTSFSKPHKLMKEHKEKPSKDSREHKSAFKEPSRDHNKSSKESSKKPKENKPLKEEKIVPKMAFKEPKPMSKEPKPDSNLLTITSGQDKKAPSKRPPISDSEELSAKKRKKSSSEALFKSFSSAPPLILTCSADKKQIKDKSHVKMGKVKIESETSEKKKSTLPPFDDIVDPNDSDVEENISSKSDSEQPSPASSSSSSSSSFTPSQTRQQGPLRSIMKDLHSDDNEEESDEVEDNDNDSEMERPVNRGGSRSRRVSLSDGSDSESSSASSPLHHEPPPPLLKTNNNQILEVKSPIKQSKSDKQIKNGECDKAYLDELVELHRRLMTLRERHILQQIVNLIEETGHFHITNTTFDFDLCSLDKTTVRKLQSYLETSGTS
Bfl-1 A1 inh: inhibitors of the anti-apoptotic protein A1, read as caspase activation | MEF A1-2A-BIM cells, Caspase-Glo 3/7 luminescence, 3 h; percent of clofoctol response, vehicle zero | caspase activation, % (no concentration beside the values) | 330,000 compounds, 0.066% hits | AID 2462;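 active means over half of replicate activation scores above 10%, or exactly half above 10 with the replicate mean above 10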;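 further: wells of about 30 µL received 50 nL stock; many hits fall short of the cut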
Beta apoptosis: blocks beta cell apoptosis | INS-1E cytokine-induced death, ATP luminescence, 48 h; percent of positive-control rescue, neutral wells zero | protection from apoptosis, % (no concentration beside the values) | 300,000 compounds, 0.8% hits | AID 435005;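 active means all replicates at 75% or more, or half of them and the mean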;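 further: 0% = cytokine-treated negative control wells and 100% = positive control rescue; higher means more ATP so stronger rescue from cytokine killing; wells of about 40 µL received 100 nL stock; the first replicate is given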
FGF22 binding: FGF22 (human) thermal shift binding | Q9HCT0 | recombinant FGF22 thermal shift, SYPRO orange fluorescence; percent of sucrose octasulfate shift, DMSO zero | calls only at 9.99 µM | 340,000 compounds, 1.5% hits | AID 651658;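 active means melting point raised past a set limit in the mean and every replicate; three in four hits are not shown here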
Target sequence (Q9HCT0 whole entry, looked up): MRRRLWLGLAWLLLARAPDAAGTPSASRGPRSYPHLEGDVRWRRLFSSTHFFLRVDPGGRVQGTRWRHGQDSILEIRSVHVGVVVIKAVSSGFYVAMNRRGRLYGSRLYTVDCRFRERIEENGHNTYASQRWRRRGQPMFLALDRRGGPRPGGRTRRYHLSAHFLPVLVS
rRNA inh HTS: selective bacterial rRNA inhibition in E. coli; E. coli WT GFP vs humanized-ribosome RFP mutants, fluorescence, 24 h; stronger effect = lower value; DMSO median 0, no signal -100; GFP signal change (wild-type ribosome), % (no concentration beside the values); 350,000 compounds, 1.6% hits; AID 720706;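 active means significant combined selectivity score with lowered wild-type GFP, culture density cut under 30%, mutant RFP and density less affected; inactive means any of these conditions unmet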; further: one replicate is shown; some compounds called inactive have numbers as strong as hits
T cruzi inh: blocks replication of Trypanosoma cruzi; T. cruzi beta-gal in NIH3T3, luminescence, 90 h; inhibition, % (concentration not given with the values); 300,000 compounds, 1.4% hits; AID 1885;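 active means mean inhibition across valid replicates above about 55%, limit read from the data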;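 further: signal also drops with host cell toxicity which is not excluded here; 0% = plate median of DMSO wells and 100% = zero luminescence signal; higher percent means less beta-gal luminescence so fewer parasites; stock transfer was 50 nL into about 50 µL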
Ecoli growth: E. coli growth inhibition; 330,000 compounds, 0.21% hits; OD600 absorbance (test concentration not listed); Escherichia coli growth, OD600, 23 h; stronger effect = lower value;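 active means OD600 absorbance below the run mean of sample wells minus 3.6 SD, in any replicate, cut at about 0.56 in these data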;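 further: stock transfer was 300 nL into about 60 µL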
rRNA inh HTS OD600: second read-out of rRNA inh HTS, no call of its own (marks repeat the call); OD600 change, %; measured here: OD600 growth;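 optical density of the mix in the first replicate; 0 = DMSO median and -100 = no signal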
rRNA inh HTS RFP: recorded beside rRNA inh HTS, whose call it bears; RFP signal change, %; measured here: RFP humanized mutant strains;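 first replicate; 0 = DMSO median and -100 = no signal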
The depositor's hits bear a star; i = inactive; x = not tested or not shown; & = joins results of further samples. Some of the compounds tested; rates above refer to the full screens.

SMILES	UCH37 inh	AF4-AF9 inh	Bfl-1 A1 inh	Beta apoptosis	FGF22 binding	rRNA inh HTS	rRNA inh HTS OD600	rRNA inh HTS RFP	T cruzi inh	Ecoli growth
O=C(CCC1CCCCC1)Nc1ncn[nH]1	1.9	x	-0.1	-3.3	x	x	x	x	-7.4	0.729
COc1ccccc1NC(=O)CCN1CC(C)OC(C)C1 (centres undefined)	-1.1	x	0.5	-6.2	x	x	x	x	-3.2	0.679
COn1c(=O)c(-c2ccc(C)cc2)[n+]([O-])c2ccccc21	-3.9	1.1	0.3	-0.3	i	-1.2	1.4	0.6	15.9	0.635
CCCCC(=O)OCCNC(=O)c1cc2ccccc2oc1=O	-9.7	x	-0.5	7.3	x	x	x	x	-15.7	0.747
CSCC[C@H](NC(=O)Cc1c(C)c2c(cc(C)c3c(C)c(C)oc32)oc1=O)C(=O)O	-206.9	-4.3	1.1	-4.8	i	-17.6	-24.1	0.9	-3.8	0.683
CCOc1ccc(C(=O)Nc2nc(C)cc(C)n2)cc1[N+](=O)[O-]	0.2	x	0.7	-0.3	x	x	x	x	2.4	0.674
CCOC(=O)C1CCN(C(=O)C(C)N(c2ccc(Oc3ccccc3)cc2)S(C)(=O)=O)CC1 (centres undefined)	3.2	-4.9	x	x	i	2.3	-2.4	-3.2	16.4	0.698
C[C@H](CO)N1C[C@H](C)[C@@H](CN(C)C)Oc2c(NC(=O)C3CC3)cccc2C1=O	-9.7	-0.5&-2.1	1.3	1.2	i	0.8&13.8	-0.8&3.0	-0.7&-0.3	x	0.725
COc1ccc(NS(=O)(=O)c2ccc3oc(SC4CCOC4=O)nc3c2)cc1 (centres undefined)	3.3	x	-1.0	-3.5	x	x	x	x	-4.7	0.791
CC(=O)N1CCc2cc(Br)cc(S(=O)(=O)NCC3CCCO3)c21 (centres undefined)	0.3	x	0.0	-2.2	x	x	x	x	5.0	0.712
COc1ccc(OC)c2[nH]c(=O)c(CCNC(=O)Cc3cccs3)cc12	-4.0	-2.2	0.0	-1.8	i	15.5	8.8	3.7	-1.2	0.724
O=C(CCCO)NC1Cc2ccccc2C1	3.6	2.5	-2.4	0.6	i	4.7	5.4	1.6	x	0.653
O=C(Nc1ccc(N2CCN(C(=O)c3ccco3)CC2)c(Cl)c1)c1c(F)c(F)c(F)c(F)c1F	0.9	x	-0.6	2.5	x	-16.9	-17.8	7.0	48.7	0.707
O=C1Cc2ccccc2N1c1c(Cl)cccc1Cl	3.9	x	0.2	-12.9	x	x	x	x	11.3	0.787
COc1ccc(-c2cn(CCN)c(-c3ccncc3)n2)cc1	2.4	1.6	0.9	-5.4	i	6.2	-1.0	-3.1	x	0.676
C=C(C)c1cccc(C(C)(C)NC(=O)N2CC(C)OC(C)C2)c1 (centres undefined)	0.0	x	0.3	-5.5	x	x	x	x	-2.6	0.712
O=C(CCS(=O)(=O)c1ccc(Cl)cc1)Nc1ccc(N2CCOCC2)cc1	1.4	3.8	0.0	3.4	x	1.3	1.3	-8.2	-9.0	0.652
O=C(NC1CCN(Cc2ccccc2)CC1)C(NS(=O)(=O)c1cccc2nsnc12)c1ccccc1 (centres undefined)	2.8	0.5	-1.2	0.3	i	7.9	-0.5	-4.1	20.5	0.672
COc1cccc(/C=C/C(=O)OCC(=O)N2c3ccccc3CC2C)c1OC (centres undefined)	-12.9	-1.1	x	x	i	4.9	3.2	-2.4	x	0.682
CCc1ccccc1NC(=O)CSc1n[nH]c(-c2cccnc2)n1	6.0	-2.9	-0.4	3.6	i	3.2	-1.9	-2.6	-5.2	0.658
CN1C(C(=O)NCc2cccc(Br)c2)CC2Cn3c(nc4cc5ccccc5cc43)C21 (centres undefined)	-0.3	4.6	-0.4	-0.9	i	-11.1	-19.9	18.0	20.7	0.677
N#Cc1cccc(-c2cn(S(=O)(=O)c3ccc(Cl)cc3)nc2N)c1	4.2	x	-0.2	-3.2	x	x	x	x	-18.9	0.711
ON=C1c2cc(OCCN3CCCCC3)ccc2-c2ccc(OCCN3CCCCC3)cc21	5.2	x	0.9	13.7	x	x	x	x	60.5*	0.645
COc1ccc(C(CCN)Cc2ccccc2)cc1 (centres undefined)	-0.3	4.1	1.0	-0.1	i	-1.2	0.5	-1.4	89.4*	0.661
O=[N+]([O-])c1ccc(OCCn2cnc3ccccc32)cc1	4.9	0.6	0.8	-1.6	i	-5.1	-7.7	3.2	12.1	0.662
CCCOc1ccc(C(=O)Nc2ccc(N3CCN(C(C)=O)CC3)cc2)cc1	3.8	x	-1.0	5.0	x	x	x	x	5.1	0.698
CCN(CC)C(=O)COc1cc(C)c(Cl)c(C)c1	0.9	x	-0.1	-8.8	x	x	x	x	16.8	0.692
COc1ccc(-c2nnc3n2N=C(C)CS3)cc1	3.9	x	0.0	3.3	x	x	x	x	-2.7	0.711
Cc1cccc(NS(=O)(=O)c2cc3c4c(c2)C(C)C(=O)N4CCC3)c1 (centres undefined)	1.4	-8.0	0.5	-3.9	i	-0.8	-10.2	0.1	-10.6	0.701
COc1ccc([N+](=O)[O-])cc1N(CC(=O)N1CCN(Cc2ccccc2)CC1)S(C)(=O)=O	4.2	-1.1	0.2	-3.6	i	9.0	9.9	0.6	-9.0	0.624
COC(=O)Cn1c(C)c(C(C)=O)c(C(C)=O)c1C	-1.5	x	0.0	-1.1	x	2.5	-12.9	5.9	-41.9	0.724
O=C(OCC(=O)N1CCCC1)c1ccccc1O	3.5	-6.1	-1.1	0.3	i	4.4	4.8	-1.9	-4.1	0.698
COc1c(C)cc(Br)cc1C(=O)Nc1ccc(N2CCN(S(C)(=O)=O)CC2)cc1	-2.1	x	0.1	-2.6	x	x	x	x	-9.0	0.722
Cc1c([N+](=O)[O-])cnc(Sc2ccccc2)c1[N+](=O)[O-]	8.2	2.7	-0.4	-11.9	x	-18.7	-25.0	-3.8	4.9	0.62
CS(=O)(=O)c1cccc(C(=O)OCC(=O)NC(=O)Nc2ccccc2F)c1	3.3	-1.2	0.6	-3.3	i	9.7	17.8	3.5	x	0.709
COc1cccc(C(=O)NCCS(=O)(=O)N2CCCCC2)c1	-0.8	-1.7	1.0	-4.4	i	11.7	2.3	-2.0	-5.2	0.618
O=[N+]([O-])c1nn(-c2ccc3c(c2)OCCO3)n(O)c1=NCc1ccccc1Cl	7.2	10.8	-6.1	5.8	i	4.6	-3.4	19.0	40.0	0.637
CC1CC(C)CN(S(=O)(=O)c2ccc(C(C)(C)C)cc2)C1 (centres undefined)	0.0	0.1	-0.3	5.8	i	15.3	22.6	-2.1	28.2	0.639
Cc1ccc(CS(=O)Cc2ccc(C(=O)NCCc3ccccc3)o2)cc1 (centres undefined)	2.6	0.1	1.0	4.8	i	-22.1*	-16.4*	-6.3*	4.7	0.686
Nc1nonc1-n1nnc(C(=O)N/N=C/c2ccoc2)c1-c1ccccc1	x	4.0	0.1	-9.0	i	4.7	4.0	0.1	-5.5	x
O=S(=O)(NC1CC(NS(=O)(=O)OCC(Cl)(Cl)Cl)C2CCCCC12)OCC(Cl)(Cl)Cl (centres undefined)	2.1	x	0.6	-5.2	x	x	x	x	7.3	0.683&0.66
CC(NC(=O)COC(=O)C1=NN(c2ccccc2)C(=O)CC1)c1ccccc1 (centres undefined)	3.1	0.8	x	x	i	1.9	6.0	-4.1	x	0.683
COCCCn1c(SCC(=O)c2ccccc2)nc2ccccc2c1=O	5.0	-0.5	0.9	1.1	i	2.0	-1.5	-5.3	13.7	0.682
Cc1ccnc(NS(=O)(=O)c2cccc([N+](=O)[O-])c2)c1	1.5	-0.9	-0.3	-2.5	i	8.4	6.6	0.9	-2.3	0.655
CC1(C)CC(=O)C(C=NCCc2ccc(O)cc2)=C(O)C1	1.3	x	0.4	-17.0	x	x	x	x	2.4	0.688
CN(C)CCn1c(=O)n(-c2cccc(Cl)c2)c(=O)c2c3c(sc21)CCCCC3	1.4	14.7	0.5	4.9	i	-3.9	-5.4	0.9	44.3	0.653
O=C(CSc1nnc(CNC(=O)c2c(F)cccc2F)o1)NCc1ccco1	2.1	x	-1.1	-5.0	x	x	x	x	11.9	0.638
CCn1nnc(NC(=O)c2cccc(-c3cc4ccccc4oc3=O)c2)n1	-182.3	x	-7.2	-1.3	x	x	x	x	6.4	0.661
CC(=O)C1CCC2C3CCC4=CC(=O)CC[C@]4(C)[C@@]3(F)C(O)C[C@]12C (some centres undefined)	1.9	-1.8	0.8	0.3	i	-4.7	-4.3	0.5	6.9	0.685
CNC(=O)N(c1ccccc1)c1ccccc1	0.6	x	-0.5	-7.9	x	x	x	x	-7.5	0.698
CC1(C(=O)N2CC3(CC(c4ccccc4)=NO3)C[C@H]2C(=O)NCC(N)=O)CC1 (some centres undefined)	-1.8	x	-0.2	-8.7	i	2.0	-0.4	0.7	-11.8	x
Cn1nc(C(F)(F)F)c(-c2ccccc2)c1NC(=O)c1ccco1	3.5	-0.7	-0.3	-8.9	i	-3.9	0.1	-2.3	x	0.615
O=C(NCc1ccco1)c1nc2ccccc2s1	3.6	x	-1.2	-4.8	x	x	x	x	-12.0	0.666
CCOC(=O)C1CCN(C(=O)c2cc3c(s2)-c2ccccc2OC3)CC1	-283.2	-1.1	-1.7	-2.6	i	-17.6	-33.6	-7.2	-0.9	0.714
O=C(Nc1ccccc1N1CCOCC1)c1cc(-c2ccco2)nc2ccccc12	-7.0	x	0.5	-1.4	x	x	x	x	-9.2	0.741
O=C(COC(=O)c1cc[n+]([O-])cc1)Nc1ccc(F)c([N+](=O)[O-])c1	5.9	-0.6	-0.8	-4.0	i	10.9	-6.6	2.7	-5.6	0.705
COc1ccc(S(=O)(=O)Nc2nnc(Cc3ccc(OC)c(OC)c3)s2)cc1	3.7	-3.8	0.1	x	i	0.1	3.0	-10.8	2.2	0.714
O=C1CC(N2CCN(Cc3ccccc3)CC2)C(=O)N1 (centres undefined)	4.5	0.4	0.4	-1.5	i	9.9	6.4	4.0	0.9	0.702
O=C(Nc1ccc(-c2cnco2)cc1)c1ccc(Cl)cc1	-27.7	-0.3	-0.2	-5.0	i	12.8	9.7	3.3	x	0.683
c1ccc(C[C@H]2CNCCN2CC2CCCCC2)cc1	-0.9	-3.8	0.1	-2.7	i	4.7	-0.8	2.0	-8.2	x
CN(CCc1ccccc1)C(=O)c1cccc(NC(=O)Cc2cccc(NC(=O)C3CCN(C(=O)C4CCCCC4)CC3)c2)c1	-1.7	3.6	x	x	i	1.4	-2.8	3.1	x	0.681

Part of the list above, as a markdown table:
| canonical_smiles | UCH37 inh | AF4-AF9 inh | Bfl-1 A1 inh | Beta apoptosis | FGF22 binding | rRNA inh HTS | rRNA inh HTS OD600 | rRNA inh HTS RFP | T cruzi inh | Ecoli growth |
| --- | --- | --- | --- | --- | --- | --- | --- | --- | --- | --- |
| O=C(Nc1ccc(-c2cnco2)cc1)c1ccc(Cl)cc1 | -27.7 | -0.3 | -0.2 | -5.0 | i | 12.8 | 9.7 | 3.3 | x | 0.683 |
| c1ccc(C[C@H]2CNCCN2CC2CCCCC2)cc1 | -0.9 | -3.8 | 0.1 | -2.7 | i | 4.7 | -0.8 | 2.0 | -8.2 | x |
